KCNQ2 pot = potentiators of rat KCNQ2 potassium channel; 310,000 tested, 0.54% active; O88943; CHO-K1 KCNQ2, FluxOR thallium flux fluorescence; active compounds read high; B-score at 10 µM;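 active means fluorescence ratio B-score at least 3 SD of library B-scores, with initial fluorescence B-score within 3 SD, cut at about 5.3 in these data; same plate scores as AID 2156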;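 further: B-score of peak minus minimum over baseline fluorescence ratio after K+ and Tl+ stimulus; positive B-score means potentiation of KCNQ2 with more thallium influx and brighter signal; only the inactives scoring about 0 or higher are listed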
Target sequence (O88943 whole entry, looked up): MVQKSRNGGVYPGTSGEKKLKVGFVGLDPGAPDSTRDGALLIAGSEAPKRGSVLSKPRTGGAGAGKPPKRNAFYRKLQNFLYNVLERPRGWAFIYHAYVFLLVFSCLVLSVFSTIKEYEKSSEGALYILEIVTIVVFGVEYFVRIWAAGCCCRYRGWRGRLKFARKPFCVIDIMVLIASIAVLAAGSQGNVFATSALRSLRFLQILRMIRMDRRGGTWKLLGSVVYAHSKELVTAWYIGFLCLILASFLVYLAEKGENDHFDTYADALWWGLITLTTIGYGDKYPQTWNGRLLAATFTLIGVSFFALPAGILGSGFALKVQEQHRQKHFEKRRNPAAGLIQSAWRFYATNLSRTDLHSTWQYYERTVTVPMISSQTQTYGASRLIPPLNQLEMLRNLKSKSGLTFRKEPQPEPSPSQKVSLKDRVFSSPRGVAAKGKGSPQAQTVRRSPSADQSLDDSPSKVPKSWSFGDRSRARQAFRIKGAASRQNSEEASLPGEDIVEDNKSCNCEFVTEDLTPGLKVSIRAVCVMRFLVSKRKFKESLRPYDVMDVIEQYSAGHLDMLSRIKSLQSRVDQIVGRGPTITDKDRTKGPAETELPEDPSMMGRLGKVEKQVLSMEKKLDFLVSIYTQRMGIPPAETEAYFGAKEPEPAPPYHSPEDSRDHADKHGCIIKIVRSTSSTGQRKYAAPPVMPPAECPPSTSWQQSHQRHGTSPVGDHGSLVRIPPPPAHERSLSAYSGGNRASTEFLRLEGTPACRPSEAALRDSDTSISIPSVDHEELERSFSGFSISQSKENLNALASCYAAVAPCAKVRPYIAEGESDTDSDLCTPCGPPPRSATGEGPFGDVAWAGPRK
KCNQ2 pot baseline = second read-out of KCNQ2 pot, no call of its own (marks repeat the call); B-score; compound at 10 µM; measured here: initial fluorescence intensity artifact check;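 brightness before thallium and not channel activity; 0 = typical well and far values either way flag optical interference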
* = called active by the depositor. Some of the compounds tested; rates above refer to the full screens.

KCNQ2 pot | KCNQ2 pot baseline | Structure
0.09 | 0.63 | COc1cc(OC)cc(N(C(=O)CNC(=O)c2cccs2)C(C(=O)NCC2CCCO2)c2ccccc2)c1 (stereo unspecified)
2.6 | -0.45 | Cc1ccc(NC(=O)CNC(=O)c2ccco2)cc1Cl
1.1 | -1 | CCCCC(=O)Nc1ccc(NC(=S)NC(=O)CC(C)C)cc1OC
1.7 | -0.01 | Cc1ccc(N2CC(C(=O)NC3CC3)CC2=O)cc1Cl (stereo unspecified)
0.68 | -2.4 | FC(F)(F)c1ccc(/C=N/n2c(COc3ccccc3)n[nH]c2=S)cc1
0.75 | -0.73 | CS(=O)(=O)Nc1ccccc1C(=O)NCCSc1ccccc1
0.01 | 0.23 | Cc1cc(OCCOCCN(C)C)ccc1Cl
0.56 | -1.7 | CCC1(C)Cc2c(sc3c2c(=O)n(C)c2nnc(SCc4ccccc4)n32)CO1 (stereo unspecified)
0.01 | -1.9 | Cn1cnnc1SC(C(=O)Nc1ccc(F)cc1)c1ccccc1 (stereo unspecified)
0.57 | -0.05 | Cc1ccc(Sc2sc(=O)n(C)c2S(=O)(=O)c2ccc(C)cc2)cc1
0.09 | -2 | COc1ccc(NC(=O)N2CCCCC2c2cccnc2)cc1 (stereo unspecified)
0.02 | 0.4 | COc1ccc(/C(=N/OC(C)=O)c2nccc3cc(OC)c(OC)cc23)cc1OC
0.69 | 1.1 | Cc1ccc(CS(=O)(=O)CCC(=O)NCc2cccs2)cc1
0.26 | 0.43 | O=C(Nc1cccc(Cl)c1N1CCOCC1)c1ccc([N+](=O)[O-])o1
0.11 | 0.28 | O=C1CCCN1CC1CCN(Cc2nc(CC3CC3)no2)CC1
2.2 | -4.1 | Cn1c(=O)cc(SCC(=O)Nc2cccnc2)c2ccccc21
0.88 | 1.9 | CSCCC(NS(=O)(=O)c1ccccc1F)C(=O)Nc1cccc(C)n1 (stereo unspecified)
1.2 | -0.47 | O=C(CSc1nc2c(sc3ccccc32)c(=O)n1CCO)NCC1CCCO1 (stereo unspecified)
0.21 | 0.58 | COc1cc(C(=O)OCCNC(=O)c2ccncc2)cc(OC)c1OC
1.7 | 2 | CCOC(=O)C1=C(COC(=O)COc2ccc(C(C)=O)cc2)NC(=O)NC1C (stereo unspecified)
1.4 | -0.49 | N#Cc1ccccc1NC(=O)c1ccc(-c2ccccc2Cl)o1
0.99 | 0.96 | COc1ccc(/C(C)=N\NC(=O)CNC(=O)C(c2ccccc2)c2ccccc2)cc1OC
0.03 | 1.3 | COc1ccc(C(NC(=O)c2ccco2)c2ccc(OC)c(OC)c2)cc1OC
1.5 | -1.4 | O=C(Nc1nnc(C2CC2)o1)c1ccc(S(=O)(=O)N2CCCCC2)cc1
0.71 | 0.3 | COc1ccc(-c2csc(NC(=O)C3CC(=O)N(Cc4ccco4)C3)n2)cc1 (stereo unspecified)
1.3 | -0.08 | CC1(C)OC(C)(C)/C(=C/Nc2ccc(O)cc2)C1=O
1.1 | 0.02 | CCCn1c(SCC(=O)NC2CCCCC2)nnc1-c1ccncc1
1.9 | -0.73 | COc1ccc(-c2cc3c(=O)n(CC(=O)N4CCN(C)CC4)ncn3n2)cc1
0.62 | 0.01 | C/C(N)=C(/C#N)C(=O)COC(=O)CNS(=O)(=O)c1ccc(F)c(F)c1F
0.15 | -3.1 | O=C(CSc1nnc2ccccn12)NCCc1ccc(Cl)cc1

In another format: results already given.
Order of results – KCNQ2 pot | KCNQ2 pot baseline
CSCCC(NS(=O)(=O)c1ccccc1F)C(=O)Nc1cccc(C)n1 (stereo unspecified)
    0.88 | 1.9
CCC1(C)Cc2c(sc3c2c(=O)n(C)c2nnc(SCc4ccccc4)n32)CO1 (stereo unspecified)
    0.56 | -1.7

The list goes on:
KCNQ2 pot | KCNQ2 pot baseline | Structure
1.1 | 0.05 | Cc1oc(-c2ccc(Cl)cc2)nc1CS(=O)CC(=O)NC1CCCCC1 (stereo unspecified)
2 | 0.62 | N=c1c(C(=O)NCCc2ccccc2)cc2c(=O)n3ccccc3nc2n1CCCN1CCOCC1
1 | 0.02 | CCOC(=O)Cc1ncccc1C(=O)Nc1ccc(Oc2ccccc2)cc1
0.3 | -0.43 | OCC[C@@H]1C[C@@H](O)[C@H](O)[C@@]2(Cc3ccccc3CCO2)O1
0.18 | -0.01 | Cc1nn(C)c(Oc2ccc(Cl)cc2)c1C(=O)O
0.02 | -0.29 | COc1ccc(NC(=O)c2sc3nc(N4CCOCC4)c4c(c3c2N)CC(C)(C)OC4)c(OC)c1
0.5 | -0.37 | CCOc1cc(/C=N/NC(=O)C(C)Sc2ccccn2)ccc1O (stereo unspecified)
0.47 | 0.47 | Clc1ccc2c(c1)CCc1cccnc1C2=C1CCNCC1
0.67 | 0.77 | CCCN(CC(=O)Nc1ccccc1OC)C(=O)C1CCCC1
0.01 | -0.38 | CC(C)NC(=O)NC(=O)CSc1nncn1C
0.45 | 1.7 | CCN1C(=O)CC(C(=O)Nc2ccc(F)cc2)SC1=Nc1ccc2c(c1)OCO2 (stereo unspecified)
0.32 | 0.56 | O=C(N/N=C\c1cccnc1)c1ccc(Cl)s1
0.96 | -0.24 | COC(=O)Nc1ccc(S(=O)(=O)N2CCC(C(=O)N(C)C3CCCCC3)CC2)cc1
0.26 | -1.6 | O=C(O)CNC(=O)c1ccc(Sc2ccccc2)c([N+](=O)[O-])c1
1.2 | 0.04 | COc1ccc(NC(=O)CN(C)C(=O)c2c(-c3ccccc3Cl)noc2C)cc1
0.58 | 0.51 | CC1CCCC(NC(=O)c2ccc3c(SCC(=O)O)c4c(nc3c2)CCC4)C1C (stereo unspecified)
0.32 | 0.47 | CCN(CC)S(=O)(=O)c1cc(NC(=O)NCCCl)ccc1C
0.95 | 0.62 | CC(C)Cn1c(-c2csc3ccccc23)n[nH]c1=S
0.67 | 0.81 | CC1Cc2ccccc2N1S(=O)(=O)c1cccc(C(=O)NCCCO)c1 (stereo unspecified)
0.19 | 0.03 | Cc1c(Cl)cccc1NC(=O)Nc1cnccn1
0.04 | -0.66 | O=C(NCc1ccco1)c1cccc(F)c1
1.3 | -1.4 | CC(=O)Nc1ccc(/C=C(\C#N)C(=O)NC2CCCCC2C)cc1 (stereo unspecified)
1.6 | -0.02 | Cc1ccc(-c2nc(N3CCOCC3)sc2C(=O)N2CCCCC2)cc1
0.82 | 0.36 | C[C@]12CC[C@@H]3c4ccc(O)cc4CC[C@H]3[C@@H]1C[C@@H](O)[C@@H]2O[C@@H]1O[C@H](C(=O)O)[C@@H](O)[C@H](O)[C@H]1O
0.58 | -2.3 | COCCNC(=O)COc1coc(CN2CCN(Cc3ccccc3)CC2)cc1=O
0.4 | -0.95 | Cn1c(C(C#N)C(=O)c2sc3ccccc3c2Cl)nc2ccccc21 (stereo unspecified)
0.16 | -0.36 | Cc1nc(CC(=O)NNS(=O)(=O)c2ccc3ccccc3c2)cs1
0.04 | 3.4 | Cc1ccc(S(=O)(=O)Oc2ccc(/C=C(/NC(=O)c3ccccc3)C(=O)NCCC(=O)O)cc2)cc1
1.3 | -2 | O=C(OCc1nnc(-c2ccccc2)o1)c1ccco1
0.06 | 0.73 | CCn1c(CNc2ccc(F)cc2)nnc1SCC(=O)Nc1ccc(OC)cc1
0.79 | -0.7 | O=C(CN1CCC(N2CCCCC2)CC1)N1CCOCC1
0.89 | 0.41 | CC1=NN(c2nc(-c3ccc(C#N)cc3)cs2)C(=O)C1
4.8 | 0.47 | O=C(NC(=S)Nc1ccc(N2CCOCC2)c(Cl)c1)c1sc2ccccc2c1Cl
1.1 | -0.26 | O=C(NOC(=O)c1ccccc1)c1ccccc1
0.14 | -1.8 | Cc1c(NS(=O)(=O)c2ccc([N+](=O)[O-])cc2)c(=O)n(-c2ccccc2)n1C
0.35 | -1.3 | Cc1cc(N2C(=O)C(O)=C(C(=O)c3ccc(C)o3)C2c2ccc([N+](=O)[O-])cc2)no1 (stereo unspecified)
1.1 | -0.58 | CCNc1nc(Oc2ccc(=O)n(-c3ccccc3)n2)nc(N(C)C)n1
1.2 | -0.21 | Cc1ccc(Nc2nc(C)c(CCC(C)C)c(=O)[nH]2)cc1
0.06 | 0.06 | NC(=O)c1ccsc1NC(=O)CCS(=O)(=O)c1ccc(F)cc1
0.83 | 1.1 | COC(=O)CSc1nnc(CNC(=O)c2ccccc2OC)n1C
0.28 | -0.33 | COc1cccc(CN2CCN(Cc3nc(-c4cccc(F)c4F)oc3C)CC2=O)c1
0.91 | 0.54 | Cc1ccc(Cc2cnc(N)s2)o1
1.5 | -0.18 | O=C(O)c1ccc(CSc2nc3ccc(NC(=O)c4ccccc4C(=O)O)cc3s2)cc1
0.17 | 0.02 | Cn1cc(/C=C(\C#N)C(=O)Nc2ncc(Cc3ccc(Cl)cc3)s2)c2ccccc21
1.2 | -0.08 | Cc1ccc(C)c2[nH]c(=O)c(CCNC(=O)CCc3ccccc3)cc12
1 | 1.2 | COCCCNCCCCOc1ccc(Br)cc1C
0.17 | -0.11 | O=C(CSc1nnc(NC(=O)c2c(F)cccc2Cl)s1)Nc1ccccc1F
0.19 | -1.5 | COc1ccc2c(c1)C(C)=CC(C)(C)N2S(=O)(=O)c1ccc(NC(C)=O)cc1
0.66 | -0.46 | CCOC(=O)Cc1csc(NC(=O)CSc2nnc(C3CC3)n2C)n1
0.99 | 1.1 | C/C(Cl)=C\CSc1nnc2n(N)c(=O)c3ccccc3n12
0.38 | 1.2 | COc1ccc2c(c1)O/C(=C\c1sccc1C)C2=O
0.24 | 0.99 | O=C(CCCN1C(=O)c2ccccc2C1=O)NCCCN1CCOCC1
2.2 | 0.92 | Cn1cc([N+](=O)[O-])cc1-c1nc2ccccc2n1C
1.5 | 0.01 | Cc1nc2ccccn2c1C(=O)NN=C1CCN(C)CC1
1.3 | -0.12 | CCOC(=O)C1=C(CSCC(=O)OC)NC(=O)NC1c1cc(C)ccc1C (stereo unspecified)
0.62 | 3.3 | O=C(O)CCN1c2ccccc2Sc2ccccc21
0.63 | -0.64 | COc1cc(C(=O)N(C)c2nnc(-c3cccnc3)s2)cc(OC)c1OC
0.29 | -0.13 | CC(O)C(NS(=O)(=O)c1ccc(Cl)cc1)C(=O)OCC(=O)c1c[nH]c2ccccc12 (stereo unspecified)
2.3 | -0.84 | CCN(CC(=O)Nc1c(F)cccc1F)C(=O)c1ccc(S(=O)(=O)NCc2ccco2)cc1
0.59 | 0.78 | O=C(Nc1ccccc1F)NC1CCCCCCC1

Next section.
KCNQ2 pot | KCNQ2 pot baseline | Structure
1.2 | 0.36 | CC(C)(C)C(=O)N1CCN(c2nc3ccccc3s2)CC1
0.99 | -1.1 | CCCC/C(=N\NC(=O)c1ccc(Br)o1)c1ccccc1
1.6 | 0.6 | Cc1ccc(NC(=O)Cn2cc(C(F)(F)F)cc(Cl)c2=O)cc1Cl
1.2 | -1 | Cc1ccc(SCC(=O)OCC(=O)NC2CCCCCCC2)cc1
1.1 | 0.34 | CC(=O)Nc1ccc(NC(=O)c2cc(-c3ccc(C)cc3O)n[nH]2)cc1
0.1 | 0.58 | CSc1nc(N)n2nc(-c3ccccc3)cc2n1
1 | 0.22 | CCc1c(C(=O)NC2CCCCC2)[nH]c(C)c1C(C)=O
0.94 | -0.89 | CC(C)(C)c1cc(CCC(=O)NCc2ccccn2)cc(C(C)(C)C)c1O
0.6 | 0.06 | CN(C)/C=N/c1c(C(=O)NCc2ccccc2)nnn1Cc1ccccc1
0.27 | 0.84 | Cc1cc(C(=O)Nc2sc(C)c(-c3ccc(F)cc3)c2C(N)=O)no1
1.2 | 0.06 | O=Cc1cc(N=Nc2ccccc2Cl)ccc1O
0.09 | 0.41 | COC(=O)c1cccc(COC(=O)CNC(=O)c2ccco2)c1
0.01 | -0.66 | CC1CC(C)CN(S(=O)(=O)c2ccccc2[N+](=O)[O-])C1 (stereo unspecified)
0.71 | -0.4 | O=C(c1ccc(Cl)c(S(=O)(=O)N2CCCC2)c1)N1CCN(c2ccccn2)CC1
0.04 | -0.21 | COc1ccc(NC(=O)c2ccc(OC(=S)N(C)c3ccc(OC)cc3)cc2)cc1
1.7 | 1.1 | COc1ccc(NC(=O)CCCCCN2C(=O)CCC2=O)cc1Cl
0.02 | 0 | Cc1cc(C)c(C)c(OC(=O)c2sc(Cl)nc2C)c1
1.2 | 0.08 | CCCCN(C)S(=O)(=O)c1ccc(C(=O)Nc2nnc(CSC)o2)cc1
1.1 | 0.06 | Cc1cc([N+](=O)[O-])nn1CCCC(=O)Nc1cc(Cl)ccc1Cl
0.46 | 1.3 | Cc1nn(C)c(C(=O)Nc2cccc(CN3CCOCC3)c2)c1Br
1.1 | -0.12 | O=C(Cc1ccc(Cl)cc1)Nc1cccnc1

Of the compounds above, twelve have a thiophene ring, fused or not.
KCNQ2 pot | KCNQ2 pot baseline | Structure
0.09 | 0.63 | COc1cc(OC)cc(N(C(=O)CNC(=O)c2cccs2)C(C(=O)NCC2CCCO2)c2ccccc2)c1 (stereo unspecified)
0.56 | -1.7 | CCC1(C)Cc2c(sc3c2c(=O)n(C)c2nnc(SCc4ccccc4)n32)CO1 (stereo unspecified)
0.69 | 1.1 | Cc1ccc(CS(=O)(=O)CCC(=O)NCc2cccs2)cc1
1.2 | -0.47 | O=C(CSc1nc2c(sc3ccccc32)c(=O)n1CCO)NCC1CCCO1 (stereo unspecified)
0.02 | -0.29 | COc1ccc(NC(=O)c2sc3nc(N4CCOCC4)c4c(c3c2N)CC(C)(C)OC4)c(OC)c1
0.32 | 0.56 | O=C(N/N=C\c1cccnc1)c1ccc(Cl)s1
0.95 | 0.62 | CC(C)Cn1c(-c2csc3ccccc23)n[nH]c1=S
0.4 | -0.95 | Cn1c(C(C#N)C(=O)c2sc3ccccc3c2Cl)nc2ccccc21 (stereo unspecified)
4.8 | 0.47 | O=C(NC(=S)Nc1ccc(N2CCOCC2)c(Cl)c1)c1sc2ccccc2c1Cl
0.06 | 0.06 | NC(=O)c1ccsc1NC(=O)CCS(=O)(=O)c1ccc(F)cc1
0.38 | 1.2 | COc1ccc2c(c1)O/C(=C\c1sccc1C)C2=O
0.27 | 0.84 | Cc1cc(C(=O)Nc2sc(C)c(-c3ccc(F)cc3)c2C(N)=O)no1
